# Screening results (PubChem)
# Beta2AR agonist: activates human beta-2 adrenergic receptor causing internalization; P07550; Am2.2-beta2AR cells, FAP receptor internalization, flow cytometry; reference of the scale not given here; response, % (test concentration not listed); 340,000 compounds, 0.43% hits; AID 504454;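 active = response above a set limit, near 3 SD of response in nonfluorescent compounds, cut at about 42% in these data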;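 also: stock transfer was 100 nL into about 11 µL; a reference agonist was the positive control; negative values mostly stem from fluorescent compounds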
# Target sequence (P07550 whole entry, looked up): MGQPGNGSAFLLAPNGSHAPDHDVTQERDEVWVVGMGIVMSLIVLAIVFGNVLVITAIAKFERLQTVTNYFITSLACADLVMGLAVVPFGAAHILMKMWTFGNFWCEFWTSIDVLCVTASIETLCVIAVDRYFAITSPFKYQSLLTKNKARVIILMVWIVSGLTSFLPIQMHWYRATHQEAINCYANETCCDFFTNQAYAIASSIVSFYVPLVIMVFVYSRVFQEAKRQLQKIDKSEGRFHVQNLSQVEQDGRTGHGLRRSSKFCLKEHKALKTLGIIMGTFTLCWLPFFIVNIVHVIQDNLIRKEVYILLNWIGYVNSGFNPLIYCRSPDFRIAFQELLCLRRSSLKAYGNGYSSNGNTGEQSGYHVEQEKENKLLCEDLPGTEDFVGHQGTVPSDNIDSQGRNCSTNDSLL
# ALR inh: blocks human ALR sulfhydryl oxidase activity. purified ALR, DTT oxidation, H2O2 HRP-luminol luminescence. P55789. inhibition, % (no concentration beside the values). 290,000 compounds, 3.8% hits;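 active = mean and each replicate at 75% or more; inconclusive = only one of the two met; inactive = neither met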;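 also: stock transfer was 7.5 nL into about 7.5 µL; 0% = neutral wells and 100% = wells with inactivated enzyme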
# Target sequence (P55789 whole entry, looked up): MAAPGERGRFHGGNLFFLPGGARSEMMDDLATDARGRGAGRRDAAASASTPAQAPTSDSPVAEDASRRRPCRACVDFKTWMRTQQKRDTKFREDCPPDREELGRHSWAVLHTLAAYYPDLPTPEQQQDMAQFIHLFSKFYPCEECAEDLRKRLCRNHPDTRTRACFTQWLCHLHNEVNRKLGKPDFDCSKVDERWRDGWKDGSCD
# Bfl-1 A1 inh: inhibitors of the anti-apoptotic protein A1, read as caspase activation; MEF A1-2A-BIM cells, Caspase-Glo 3/7 luminescence, 3 h; percent of clofoctol response, vehicle zero; caspase activation, % (concentration not given with the values); 330,000 compounds, 0.066% hits;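 active = over half of replicate activation scores above 10%, or exactly half above 10 with the replicate mean above 10; inconclusive = replicate mean below 10 yet half the replicates above 10; inactive = over half of replicates below 10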;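 also: wells of about 30 µL received 50 nL stock; many hits fall short of the cut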
# Beta cell apopt: beta cell apoptosis inhibition. AID 435005. protection from apoptosis, % (no concentration beside the values). 300,000 compounds, 0.8% hits. INS-1E cytokine-induced death, ATP luminescence, 48 h; percent of positive-control rescue, neutral wells zero;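 active = all replicates at 75% or more, or half of them and the mean; inconclusive = half reach 75% but not the mean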;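 also: 0% = cytokine-treated negative control wells and 100% = positive control rescue; higher means more ATP so stronger rescue from cytokine killing; wells of about 40 µL received 100 nL stock; the first replicate is given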
# Ecoli rRNA inh: inhibitors of bacterial rRNA selective over humanized ribosomes | GFP signal change (wild-type ribosome), % (no concentration beside the values) | 350,000 compounds, 1.6% hits | E. coli WT GFP vs humanized-ribosome RFP mutants, fluorescence, 24 h; active compounds read low; DMSO median 0, no signal -100;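 active = significant combined selectivity score with lowered wild-type GFP, culture density cut under 30%, mutant RFP and density less affected; inactive = any of these conditions unmet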; also: one replicate is shown; some compounds called inactive have numbers as strong as hits
# Calb FLC: C. albicans growth modulation with fluconazole. C. albicans CaCi-2 (fluconazole-resistant clinical isolate) + fluconazole, Alamar Blue growth, 48 h. growth inhibition, % (concentration not given with the values). 300,000 compounds, 0.57% hits;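 active = most replicates above 75%; inconclusive = exactly half above 75%; inactive = most below 75%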;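 also: all wells also contain fluconazole at 8 µg/ml as a sub-toxic cotreatment; 0% = median of DMSO wells and 100% = median of geldanamycin control wells; wells of about 8 µL received 7.5 nL stock; the first replicate is given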
# LANA-H2B inh: blocks KSHV LANA binding to histone H2A/H2B | Q9QR71 | cell-free LANA-H2A/H2B peptide, fluorescence polarization | inhibition, % (no concentration beside the values) | 320,000 compounds, 0.6% hits; in the data active = inhibition mostly above about 10%, no sharp cut-off; inactive = mostly below about 6.7%;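 also: stock transfer was 7.5 nL into about 10 µL; 0% = median of vehicle wells and 100% = median of positive control wells; one replicate is shown; the record names a cut of 25% in any replicate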
# T cruzi repl: blocks replication of Trypanosoma cruzi | AID 1885 | 300,000 compounds, 1.4% hits | inhibition, % (no concentration beside the values) | T. cruzi beta-gal in NIH3T3, luminescence, 90 h;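 active = mean inhibition across valid replicates above about 55%, limit read from the data; inconclusive = mean below that limit but half or more replicates reach it; inactive = mean below it, under half of replicates reach it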;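 also: signal also drops with host cell toxicity which is not excluded here; 0% = plate median of DMSO wells and 100% = zero luminescence signal; higher percent means less beta-gal luminescence so fewer parasites; stock transfer was 50 nL into about 50 µL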
# Ecoli rRNA inh OD600: also measured in Ecoli rRNA inh; calls as there; OD600 change, %; measured here: OD600 growth;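 optical density of the mix in the first replicate; 0 = DMSO median and -100 = no signal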
# Ecoli rRNA inh RFP: further read-out of Ecoli rRNA inh, marked with its call; RFP signal change, %; measured here: RFP humanized mutant strains;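 first replicate; 0 = DMSO median and -100 = no signal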
# Active calls of the source: *; ? = inconclusive; / = not tested or not shown.
SMILES,Beta2AR agonist,ALR inh,Bfl-1 A1 inh,Beta cell apopt,Ecoli rRNA inh,Ecoli rRNA inh OD600,Ecoli rRNA inh RFP,Calb FLC,LANA-H2B inh,T cruzi repl
CC(C)CC(NC(=O)OC(C)(C)C)c1cn([C@@H](CCCCNC(=O)OC(C)(C)C)C(=O)N2CCN(C(=O)OC(C)(C)C)CC2)nn1 (some centres undefined),3,-14,2.4,4,/,/,/,11,0.1,10
COc1ccc(C(=O)OCC(=O)Nc2ccc(F)c(F)c2F)cc1OC,4,7,2.0,-28,/,/,/,-4,1.5,-5
O=C(CCNS(=O)(=O)c1ccccc1)NNC(=O)c1csc(N2CCOCC2)n1,3,-13,0.0,-4,10,16,0.5,-1,-3.7,-7
Cc1cccn2c(=O)c(C=NCc3ccccc3)c(NCCO)nc12,-1,7,-0.3,0,15,3,3.4,-3,3.3,-2
O=C(O)CCC(=O)N1N=C(c2ccc(Br)cc2)CC1c1cccc(Br)c1 (centres undefined),14,29,0.5,-3,-15,-8,-1.5,18,-3.2,26
COC(=O)c1ccc(-n2c(C)ccc2-c2ccccc2)cc1,5,23,0.6,-11,-22*,-0.1*,4.3*,-39,-3.0,16
COc1ccc(/C(N)=N/OC(=O)C2CCCCC2)cc1,-3,20,-0.2,5,-1,-3,-1.3,-5,2.1,5
Clc1ccc(CNc2cnccn2)cc1Cl,4,1,0.2,-5,3,-22,-4.0,-25,-1.7,0
COc1cccc(N2C(=O)Nc3ccc(Br)cc3C2(O)C(=O)NCCN(C)C)c1 (centres undefined),0,-3,0.0,-3,7,13,0.6,0,-6.8,-3
O=C(COc1ccccc1)Nc1nnc(-c2ccc(F)cc2)o1,5,-5,-1.2,1,-38,-71,-12,64,6.5,4
O=C(O)C1CCN(c2c([N+](=O)[O-])cc(C(F)(F)F)cc2[N+](=O)[O-])CC1,-10,49,-0.2,/,/,/,/,-1,6.0,-11
CC1(NC(=O)CCc2ccccc2)CCN(CCCc2ccccc2)C1=O (centres undefined),-4,-11,-0.1,-1,0,-12,-7.9,/,-4.0,/
N=c1c2c(ncn1Cc1ccco1)Oc1cc(O)ccc1C2c1ccccc1 (centres undefined),5,27,0.1,2,-4,4,1.2,-8,-0.6,5
CCc1cc2c(=O)c(-c3ccc(F)cc3)c(C(F)(F)F)oc2cc1OCC(=O)O,/,-53,0.3,-12,/,/,/,-10,-2.4,-22
O=C1NCCN/C1=C\C(=O)c1ccc(Br)cc1,-8,-15,-0.8,-9,-1,6,2.0,-22,4.3,6
CC1CCC2C(=O)N(c3ccc(NC4CCN(Cc5ccccc5)CC4)c([N+](=O)[O-])c3)C(=O)C2C1 (centres undefined),-3,-1,-0.5,-1,-15,-13,-3.8,-11,-5.5,30
O=c1c2ccccc2cnn1Cc1n[nH]c(=S)n1C1CC2CCC1C2 (centres undefined),-11,86*,0.8,-2,-20*,-9.5*,0.0*,4,0.6,-18
Cc1cc(Oc2ccc(N)cn2)cc(C)c1Cl,14,8,-0.3,/,14,7,1.8,-2,-2.2,17
COc1ccccc1N(CC(=O)N1CCCCC1)S(=O)(=O)c1ccccc1,-3,-3,-0.1,-1,/,/,/,6,1.6,-6
CCOc1ccc(C2c3c(oc4ccccc4c3=O)C(=O)N2c2ccc(C)cn2)cc1OC (centres undefined),-23,-6,0.3,11,9,8,-0.7,4,-3.8,33
Cc1cccc(-c2nc(CS(=O)CC(=O)NCc3ccco3)c(C)o2)c1 (centres undefined),1,99*,0.1,-2,8,-7,-3.2,1,-1.1,3
COC(=O)c1ccc(NC(=O)COc2cccc(-n3cnnn3)c2)cc1,-1,-11,0.1,-10,5,4,-0.5,-1,4.8,15
CC(C)c1nnc(NC(=O)CSc2nnc(NC(=O)c3c(F)cccc3F)s2)s1,3,-1,0.3,-2,1,5,2.8,-15,8.8,6
COC(=O)Cn1ccc(N(C)C)c(C#N)c1=O,5,-15,-0.1,-9,12,13,0.2,?,15,-16
COc1ccccc1CNC(=O)COC(=O)[C@H](Cc1c[nH]c2ccccc12)NC(=O)c1cccs1,10,-3,-0.3,-12,/,/,/,-8,-2.6,-8
# Continuation.
SMILES,Beta2AR agonist,ALR inh,Bfl-1 A1 inh,Beta cell apopt,Ecoli rRNA inh,Ecoli rRNA inh OD600,Ecoli rRNA inh RFP,Calb FLC,LANA-H2B inh,T cruzi repl
Cc1cc(C)nc(Nc2ccccc2Br)n1,1,0,-0.2,-1,/,/,/,18,-4.0,2
COc1ccc(CNC(=O)COC(=O)c2ccccc2C(=O)c2ccccc2)cc1,-1,2,0.0,-1,-42,-36,-16,4,-12,6
CC(=O)n1cc([C@@H]2C=C(C(=O)Nc3ccccc3)O[C@H](OCCCCO)C2)c2ccccc21,-2,-2,1.1,9,-6,-14,2.0,2,-6.5,-1
CCn1nnnc1SCC(=O)NCc1ccc2c(c1)OCO2,-6,-3,-0.5,-9,/,/,/,-4,3.7,0
O=C(Nc1cccs1)Nc1c(F)c(F)c(F)c(F)c1F,-4,5,0.3,58,-8,-24,1.9,-9,-0.8,-11
COc1ccc2nc(SCC(=O)NCc3ccc(OC)c(OC)c3)[nH]c2c1,7,/,0.5,-18,1,1,0.4,-6,0.8,3
CC(C)CN1CCC(Oc2cccc(C(=O)NCCc3ccccc3)c2)CC1,2,-1,-1.0,/,6,9,-2.2,-4,3.2,38
Cc1ccc(CN2CCN(Cc3ccco3)CC2)cc1,-3,2,0.9,/,9,3,1.1,0,-0.8,36
CN(Cc1cn(C)nc1-c1ccc(Oc2ccccc2)cc1)C1CCOC1 (centres undefined),0,1,0.5,-4,-3,-4,3.3,-2,0.4,13
O=C(NCc1ccccc1)C(=O)NCC1OCCN1C(=O)c1ccc(Cl)cc1 (centres undefined),2,/,-0.2,-3,1,0,-1.2,?,7.2,-7
O=C(NCC(c1ccco1)N1CCCC1)c1cccc(NS(=O)(=O)c2ccc(Br)cc2)c1 (centres undefined),-5,-2,0.1,-1,0,1,4.5,-1,-1.4,25
CCCc1[nH]nc2c1C(c1cc(OC)cc(OC)c1)C(C#N)=C(N)O2 (centres undefined),-3,15,0.4,-2,/,/,/,1,4.3,-6
Cc1cc(C)n(-c2nc(SCC(=O)O)c3c4c(sc3n2)CCCC4)n1,/,-6,-0.1,1,/,/,/,5,-1.7,42
CCOc1cc(C(=O)N(C)Cc2cc3ccccc3[nH]c2=O)cc(OCC)c1OCC,-4,-6,0.6,1,/,/,/,2,2.4,-11
COc1ccc(CCN2CC(C(=O)Nc3cccc(C(C)=O)c3)CC2=O)cc1OC (centres undefined),6,-8,-0.7,-5,5,-3,3.3,-6,-3.7,-6
O=C1CCc2cc(S(=O)(=O)N3CCC(C(=O)NC4CCCC4)CC3)ccc2N1,5,11,0.5,/,6,6,8.8,-4,-2.1,-7
COc1ccc(CN2CCC(=O)N([C@H](CO)CC(C)C)CC2)cc1,0,0,-0.7,-11,11,24,9.8,-1,-8.0,2
CC(C)OC(=O)CSc1nnc(-c2cnccn2)n1Cc1ccco1,5,-7,0.2,-2,/,/,/,6,-0.9,-3
Cc1ccc2c(C)nc(N/C(N)=N/S(=O)(=O)c3ccccc3)nc2c1,1,-4,1.2,-5,24,22,7.6,11,2.2,12
CCn1c(CN2CCN(Cc3ccc(C)cc3)C(CCO)C2)nc2ccccc21 (centres undefined),-10,-3,-0.5,-9,-7,4,13,?,0.8,50
CC(=O)Nc1ccc2c(c1)OCCO2,7,/,0.4,-7,/,/,/,2,3.6,-12
COc1cccc(NC(=S)N/N=C2\CC(C)(C)Oc3ccc(O)cc32)c1,-2,7,2.3,3,-12,-15,-6.5,-13,2.4,-14
CC(C)(C)c1[nH]nc2c1C(c1ccsc1)C(C#N)=C(N)O2 (centres undefined),8,3,0.4,4,-9,0,8.9,1,-2.9,-17
COC(=O)CNC(c1ccccc1)c1cc(Br)ccc1NC(=O)CCN1CCOCC1 (centres undefined),4,-6,0.0,-11,3,-1,2.4,-10,-2.6,68*
Cc1ccc(SCC(=O)O/N=C(\N)c2ccc([N+](=O)[O-])cc2)cc1,2,98*,0.1,-11,/,/,/,-4,-1.2,9
# Going on with the list.
SMILES,Beta2AR agonist,ALR inh,Bfl-1 A1 inh,Beta cell apopt,Ecoli rRNA inh,Ecoli rRNA inh OD600,Ecoli rRNA inh RFP,Calb FLC,LANA-H2B inh,T cruzi repl
O=C(Nc1ccc(C(=O)N2CCCCC2)cc1)c1ccccc1Br,4,-9,-4.3,1,6,4,3.3,2,1.8,0
Nc1ncnc2c1CCC2,26,-6,-0.1,2,/,/,/,11,-0.2,-15
CCOc1ccccc1CN1CCN(Cc2nc3c(s2)CCCC3)CC1CCO (centres undefined),0,-18,0.4,7,-5,-5,-1.1,-36,3.6,53
Cc1cc(C)n(C(=O)/C(C#N)=N\Nc2ccccc2[N+](=O)[O-])n1,2,-3,0.2,2,13,20,-13,9,-4.4,-8
COc1cc2[nH]c(C(=O)N3CCN(c4ccc(F)cc4)CC3)cc2c(OC)c1OC,-2,-50,-0.2,0,4,12,-2.7,12,-0.5,3
CSc1ccc(S(=O)(=O)N2CCC(C(=O)NCCc3ccccc3)CC2)cc1,21,2,?,-6,3,16,-2.4,-5,0.2,-2
O=C(CCSc1nnc2ccccn12)Nc1ccc2c(c1)OCO2,0,-5,0.7,0,10,5,0.6,-1,2.7,0
COc1ccc(NC(=O)c2sc3nc(C)cc(C)c3c2N)cc1,-3,-18,-0.3,7,-1,-1,-2.1,6,0.5,-3
COc1cccc(C(=O)NNC(=O)C(=O)Nc2ccc(C)cc2)c1,-2,4,-0.3,-7,-17,-18,1.1,0,-1.9,5
Cc1ccc(OC(=O)c2ccc(S(=O)(=O)N(C)C)cc2)c(-n2nc3ccccc3n2)c1,2,1,-10,-8,/,/,/,9,0.4,-20
Cc1cc(C(=O)OCC(=O)Nc2ncc(C(F)(F)F)cc2Cl)c(C)o1,-2,-2,-0.7,-7,/,/,/,-7,-2.3,-17
Cc1ccc2c(c1)N(C(=O)CCC(=O)NCCCN1CCC(Cc3ccccc3)CC1)CCO2,23,-11,0.3,99*,-1,-20,25,2,0.5,-10
O=C(O)c1ccc2c(c1)C1C=CCC1C(c1ccncc1)N2 (centres undefined),0,-17,-0.7,-6,6,1,0.8,6,-4.0,7
O=C(CSc1nc2ccccc2n1Cc1ccccc1)N/N=C/c1ccco1,-5,0,0.8,5,/,/,/,9,1.4,/
COc1ccc(CN(C(=O)c2cccs2)C(C(=O)NC2CCCCC2)c2ccc3ncccc3c2)cc1 (centres undefined),1,-3,0.7,-1,/,/,/,7,14,20
COc1nc(-c2ccc(Cl)cc2)ccc1-c1noc(-c2cccs2)n1,12,-2,-0.7,3,/,/,/,-15,0.6,2

# Some of the compounds tested, so the mix of outcomes need not match the whole.
